Assay outcomes as filed in PubChem.
AF4-AF9 inh: inhibitors of human MLL-AF4/AF9 interaction; 350,000 tested, 0.47% active; P42568; inhibition, % at 10 µM; AlphaScreen, biotin-AF4 peptide binding to FLAG-AF9;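 active = every replicate reaching a set inhibition limit, whatever the replicate mean, cut at about 25% in these data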;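 note: 0% = plate neutral control median and 100% = total signal loss; the record names both 10 and 1 µM as test concentration; the first replicate is given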
Target sequence (P42568 whole entry, looked up): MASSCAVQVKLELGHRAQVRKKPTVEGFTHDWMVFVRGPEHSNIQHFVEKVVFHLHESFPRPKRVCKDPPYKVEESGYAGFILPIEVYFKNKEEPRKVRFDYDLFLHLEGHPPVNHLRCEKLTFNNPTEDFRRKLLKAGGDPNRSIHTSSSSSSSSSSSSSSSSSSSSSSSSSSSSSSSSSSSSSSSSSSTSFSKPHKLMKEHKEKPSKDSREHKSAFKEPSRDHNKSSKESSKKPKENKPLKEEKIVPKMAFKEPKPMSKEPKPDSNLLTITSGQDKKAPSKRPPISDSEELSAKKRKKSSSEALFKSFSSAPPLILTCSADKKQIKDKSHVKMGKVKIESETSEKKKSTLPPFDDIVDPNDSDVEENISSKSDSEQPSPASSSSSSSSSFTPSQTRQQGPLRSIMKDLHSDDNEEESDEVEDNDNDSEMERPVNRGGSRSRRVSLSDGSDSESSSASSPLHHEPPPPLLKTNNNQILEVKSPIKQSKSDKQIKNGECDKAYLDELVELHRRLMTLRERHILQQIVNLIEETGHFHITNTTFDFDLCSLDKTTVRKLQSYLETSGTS
rRNA inh HTS: inhibitors of bacterial rRNA selective over humanized ribosomes | E. coli WT GFP vs humanized-ribosome RFP mutants, fluorescence, 24 h; active compounds read low; DMSO median 0, no signal -100 | GFP signal change (wild-type ribosome), % (concentration not given with the values) | 350,000 tested, 1.6% active | AID 720706;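 active = significant combined selectivity score with lowered wild-type GFP, culture density cut under 30%, mutant RFP and density less affected; inactive = any of these conditions unmet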; note: one replicate is shown; some compounds called inactive have numbers as strong as hits
Vif A3G: inhibitors of Vif binding to APOBEC3G peptide, primary screen, biochemical, TR-FRET, GST-Vif 1-94, biotin-A3G peptide, dose response retest (AID 1117319). inhibition, %; hits with a dose series show IC50 in µM. TR-FRET GST-Vif / biotin-A3G peptide binding; higher % means a stronger effect; test concentration not given here; strong numbers were not always called active. 260,000 tested, 0.57% active;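 active = above the screen mean plus three standard deviations and confirmed in dose response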;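 note: Vif residues 1-94 fused to GST binding biotinylated APOBEC3G peptide 110-148; 0% = full assay without inhibitor and 100% = GST in place of GST-Vif; retest series ran down from 100 µM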
rRNA inh HTS OD600: recorded beside rRNA inh HTS, whose call it bears; OD600 change, %; measured here: OD600 growth;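 optical density of the mix in the first replicate; 0 = DMSO median and -100 = no signal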
rRNA inh HTS RFP: further read-out of rRNA inh HTS, marked with its call; RFP signal change, %; measured here: RFP humanized mutant strains;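 first replicate; 0 = DMSO median and -100 = no signal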
Active calls of the source: *; & = joins results of further samples. The list is partial; rates above refer to the full screens.

SMILES | AF4-AF9 inh | rRNA inh HTS | rRNA inh HTS OD600 | rRNA inh HTS RFP | Vif A3G
CCN(CC)CC(O)CNc1ccnc2c(Cl)ccc(Cl)c12 (configuration not stated) | 1.7 | 0 | 9 | 1.6 | -7%
CCCCCCn1c(=O)n2n(c1=O)[C@@H]1CN(S(=O)(=O)c3ccc(C)cc3)C[C@]1(O)[C@@H](OC(=O)Nc1c(C)noc1C)C2 | 1.9 | 3 | 1 | 1.3 | -6%
CCN(C[C@H]1N[C@@](CC)(C(=O)OC)[C@H]2C(=O)N(C)C(=O)[C@@H]12)C(=O)c1ccc(C(C)(C)C)cc1 | 0.3 | -8 | -1 | 1.4 | 2%
O=C(CN1C(=O)NC2(CCCCCC2)C1=O)Nc1ccc(OC(F)(F)F)cc1 | -1.0 | -17 | -66 | -9.6 | -8%
COc1cccc(CN(C)C(=O)c2cccc(S(=O)(=O)N3CCN(Cc4ccccc4)CC3)c2)c1OC | 1.8 | -8 | -28 | -1.2 | 0%
CC(CCNC(=O)c1ccccc1)(CCNC(=O)c1ccccc1)[N+](=O)[O-] | -3.2 | 3 | 1 | 5.7 | -4%
CC[C@]12c3[nH]c4ccc(Cl)cc4c3CCN1C(=O)[C@@H](CC(=O)NCc1ccco1)C[C@@H]2C(=O)N1CCN(C(=O)C2CC2)CC1 | 0.6 | -4 | -3 | 5.0 | -6%
O=C(CCCc1ccccn1)c1ccc(-c2ccccc2)cc1 | 1.1 | -49 | -71 | -13 | 0%
COC(=O)c1ccc(N=c2sc(C(=O)OC)cc(=O)n2C)cc1 | -4.0 | 5 | 3 | 1.5 | -7%
COc1ccccc1/C=C/C(=O)OCC(=O)Nc1ccc2c(c1)OCCO2 | 0.0 | 1 | 25 | -2.2 | 0%
CS(=O)CC(O)(c1ccc(F)cc1)C1CC1 (configuration not stated) | -2.4 | 4 | 7 | 2.6 | 7%
Cc1ccc(S(=O)(=O)N[C@H](C(=O)OCC(=O)NC(=O)c2cccn2C)C(C)C)cc1 | 1.0 | -14 | -12 | 1.4 | 7%
CCC1([N+](=O)[O-])COC(c2ccc(Cl)cc2)OC1 (configuration not stated) | -10.0 | 8 | -7 | -0.6 | 1%
C1=CCN(c2nc(N3CCOCC3)nc(N3CCCc4ccccc43)n2)CC1 | -5.2 | -1 | 5 | -1.8 | 6%
CN(CCc1ccccc1)C(=O)c1ccc(NC(=O)Cc2cccc(NC(=O)C3CCN(C(=O)CCc4ccccc4)CC3)c2)cc1 | 0.0 | 0 | 6 | 4.9 | -2%
c1cncc(-c2cn(C[C@H]3CC[C@H](Cn4cc(-c5cccnc5)nn4)O3)nn2)c1 | -0.2 | 20 | 16 | 2.8 | -7%
Cc1ccc(S(=O)(=O)NCCC(=O)NC2CCCCCC2)cc1 | -2.4 | 3 | 2 | 0.0 | 8%
CC(C)c1cc(N=O)cc(C(C)C)c1O | -2.0 | -2 | 11 | 5.9 | 3%
c1ccc2c(c1)nnn2Cn1nnc2ccccc21 | 0.1 | -6 | 0 | 0.3 | -9%
N#Cc1ccccc1NC(=O)CNc1cc(S(=O)(=O)N2CCOCC2)ccc1NCC1CCCO1 (configuration not stated) | 1.0 | 0 | 4 | 0.3 | 2%
C[C@@H]1CCCCO[C@H](CN(C)Cc2ccc3c(c2)OCO3)[C@H](C)CN([C@@H](C)CO)C(=O)c2cc(NC(=O)c3ccccc3)ccc2O1 | 7.3&3.9 | 2 | -2 | -0.8 | 4%
COc1ccc2nc3n(c(=O)c2c1)-c1cc2ccccc2cc1C(=O)NC3Cc1ccccc1 (configuration not stated) | -1.5 | 5 | 19 | 8.7 | -13%
CCN(Cc1nc2ccccc2c(=O)[nH]1)C(=O)COc1ccccc1Cc1ccccc1 | -18 | -2 | 3 | 1.8 | 6%
O=C(C[C@H]1C[C@H]2c3cc(NS(=O)(=O)c4ccc(F)cc4)ccc3O[C@H]2[C@H](CO)O1)NCc1cc(F)ccc1F | 1.5&0.2 | -6&-4 | -24&-32 | 1.3&34 | 8%
CC(=O)OCC1=C(C(=O)OC(C)(C)C)N2C(=O)[C@@H](NC(=O)Cc3ccccc3)[C@H]2SC1 | -9.5 | 15 | 2 | 9.2 | 17%
COC(=O)c1ccc(CSC2=NC[C@@H]3[C@@H]4C(=O)N(C)C(=O)[C@@H]4[C@](Cc4ccccc4)(C(=O)OC)N23)cc1 | 2.2 | -1 | -6 | 4.7 | -11%
CCOC(=O)C1=CN(CC)S(=O)(=O)NC1c1ccc2ccccc2c1 (configuration not stated) | -3.0 | -29 | -34 | -5.2 | -4%
CC(OC(=O)c1cc(=O)c2cc(Cl)ccc2o1)C(=O)N1CCCC1 (configuration not stated) | -4.2 | 8 | 15 | -2.1 | -3%
CCN(CC(=O)Nc1c(F)cccc1F)C(=O)c1c(-c2ccccc2Cl)noc1C | 0.7 | -4 | -10 | -1.4 | 10%
CC(C)(CCC(=S)N1CCOCC1)c1ccccc1 | 5.7 | -18 | -28 | -5.3 | -6%

In a second layout: results already given.
compound	AF4-AF9 inh	rRNA inh HTS	rRNA inh HTS OD600	rRNA inh HTS RFP	Vif A3G
c1ccc2c(c1)nnn2Cn1nnc2ccccc21	0.1	-6	0	0.3	-9%
N#Cc1ccccc1NC(=O)CNc1cc(S(=O)(=O)N2CCOCC2)ccc1NCC1CCCO1 (configuration not stated)	1.0	0	4	0.3	2%
C[C@@H]1CCCCO[C@H](CN(C)Cc2ccc3c(c2)OCO3)[C@H](C)CN([C@@H](C)CO)C(=O)c2cc(NC(=O)c3ccccc3)ccc2O1	7.3&3.9	2	-2	-0.8	4%
COc1ccc2nc3n(c(=O)c2c1)-c1cc2ccccc2cc1C(=O)NC3Cc1ccccc1 (configuration not stated)	-1.5	5	19	8.7	-13%
CCN(Cc1nc2ccccc2c(=O)[nH]1)C(=O)COc1ccccc1Cc1ccccc1	-18	-2	3	1.8	6%
O=C(C[C@H]1C[C@H]2c3cc(NS(=O)(=O)c4ccc(F)cc4)ccc3O[C@H]2[C@H](CO)O1)NCc1cc(F)ccc1F	1.5&0.2	-6&-4	-24&-32	1.3&34	8%
CC(=O)OCC1=C(C(=O)OC(C)(C)C)N2C(=O)[C@@H](NC(=O)Cc3ccccc3)[C@H]2SC1	-9.5	15	2	9.2	17%
COC(=O)c1ccc(CSC2=NC[C@@H]3[C@@H]4C(=O)N(C)C(=O)[C@@H]4[C@](Cc4ccccc4)(C(=O)OC)N23)cc1	2.2	-1	-6	4.7	-11%
CCOC(=O)C1=CN(CC)S(=O)(=O)NC1c1ccc2ccccc2c1 (configuration not stated)	-3.0	-29	-34	-5.2	-4%

Following part
SMILES | AF4-AF9 inh | rRNA inh HTS | rRNA inh HTS OD600 | rRNA inh HTS RFP | Vif A3G
C[C@@H]1CN([C@H](C)CO)C(=O)CCCn2nncc2CO[C@H]1CN(C)C(=O)c1ccc(N2CCN(C)CC2)cc1 | 1.7&-3.7 | 14&3 | 15&9 | -1.9&0.1 | 0%
C=CC[C@H](CC(=O)N(CCO)Cc1ccccc1)C(=O)NCCOC(=O)[C@H](CC=C)CC(=O)OC(C)(C)C | -2.9 | -6 | -1 | -2.2 | -6%
Nn1c(SCC(=O)Nc2nccs2)nnc1-c1ccco1 | 0.9 | 4 | 7 | 0.4 | -8%
Cc1ccc(S(=O)(=O)N2CCC(C(=O)N3CCN(c4ccccn4)CC3)CC2)cc1C | 2.2 | -6 | -40 | 5.1 | 19%
O=C(CNC(=O)OCc1ccccc1)NCC(=O)Oc1ccc([N+](=O)[O-])cc1 | -3.0 | 6 | 15 | -0.3 | 0%
COc1cc(OC)c2c(-c3ccccc3)cc(=O)oc2c1C(CCN1CCOCC1)c1ccc(N(C)C)cc1 (configuration not stated) | 39* | -2 | -2 | 3.7 | 2%
CC(OC(=O)c1ccc(-n2cnnn2)cc1)C(=O)N(C)c1ccccc1 (configuration not stated) | -1.3 | -1 | 1 | -2.2 | 0%
CCOc1ccc(N(CC(=O)Nc2ccc(Cl)cc2)S(C)(=O)=O)cc1 | 0.6 | -6 | -7 | 2.4 | -9%
CNC(=O)C[C@H]1C(=O)N(c2ccc(OC)cc2)C[C@@H]1CSC | -0.2 | 8 | 5 | -3.8 | -1%
O=C(CSc1nc2c(cnn2-c2ccc(F)cc2)c(=O)[nH]1)N1N=C(c2cccs2)CC1c1ccc(F)cc1 (configuration not stated) | 3.7 | -2 | 15 | 1.2 | 2%
O=c1cc(-c2ccc(O)c(O)c2)oc2ccc3ccccc3c12 | 1.1 | -4 | -10 | -6.5 | 11%
Fc1ccc(CSc2ncnc3c2ncn3C2CCCCO2)cc1 (configuration not stated) | -3.6 | -9 | -18 | -3.1 | -5%
O=C1NC(=S)SC1=Cc1ccccc1Cl | 3.4 | -73 | -79 | -30 | 2%
O=C(Cc1ccc(S(=O)(=O)N2CCOCC2)s1)Nc1ccc(Br)c(C(F)(F)F)c1 | -1.8 | -11 | -8 | 9.1 | -3%
CCOC(=O)C1CC2=C(CCCC2=O)N(Cc2ccccc2)C1=O (configuration not stated) | -2.4 | 13 | 4 | 1.8 | 6%
CC(CO)NS(=O)(=O)c1ccc(Br)cc1F (configuration not stated) | -1.4 | 18 | 13 | 1.4 | 5%
CC(C)n1cc(C#N)c(N)n1 | -3.4 | 6 | 9 | -2.7 | -13%
O=C(CSc1nc2[nH]ncc2c(=O)[nH]1)Nc1cc(C(F)(F)F)ccc1Cl | -4.0 | 4 | -15 | 0.9 | 3%
O=C(COC(=O)c1ccc2c(c1)OCCO2)Nc1ccccc1C(F)(F)F | -3.1 | 7 | 8 | 1.3 | 1%
CC(=O)N[C@@H](Cc1c[nH]c2ccccc12)C(=O)OCC(=O)Nc1ccc2c(c1)OCO2 | 0.2 | -8 | -7 | 2.4 | -5%
CCN(C[C@H]1N[C@@](Cc2ccccc2)(C(=O)OC)[C@H]2C(=O)N(Cc3ccccc3)C(=O)[C@@H]12)C(=O)c1ccc(F)cc1 | 1.4 | -15 | -16 | -3.2 | 4%
CCCCN(C(=O)CCN1C(=O)C2CC=CCC2C1=O)c1c(N)n(CCCC)c(=O)[nH]c1=O (configuration not stated) | 2.8 | 3 | 0 | -0.9 | 1%
CCN1CCN(S(=O)(=O)c2ccc(Cl)c(C(=O)N(CC)Cc3ccccc3)c2)CC1 | 0.9 | 6 | 8 | -1.7 | 1%
COc1ccc(C)cc1/C=C/C(=O)N1CCN(S(=O)(=O)c2cccs2)CC1 | 1.6 | -10 | -9 | 1.1 | -7%
CCN(C(=O)COC(=O)[C@H](C)N=C1NS(=O)(=O)c2ccccc21)C1CCS(=O)(=O)C1 (some centres not stated) | -2.5 | 11 | 12 | 1.7 | -6%
Cc1cccc(OCc2nnc(SCC(=O)N(C)C3CCCCC3)o2)c1 | -9.3 | -9 | -26 | -1.3 | -6%
CC1CCN(C(=O)COC(=O)CNC(=O)c2ccccc2F)CC1 | -1.6 | 3 | 2 | -1.2 | 1%
COc1ccccc1S(=O)(=O)N(C)C[C@@H]1OCc2cnnn2CCCC(=O)N([C@@H](C)CO)C[C@H]1C | -3.1&-4.3 | 15&1 | 14&3 | -2.3&-0.4 | 8%
COc1ccc(C)cc1S(=O)(=O)N1c2ccc(C)cc2C2CN(C)CCC21 (configuration not stated) | -3.6 | 0 | 5 | 1.3 | -2%
O=C(N=C1SC2CS(=O)(=O)CC2N1Cc1ccccc1)c1ccccc1 (configuration not stated) | -0.4 | 6 | 11 | -5.4 | -58%
CC12CCC(C(=NO)C1=NO)C2(C)C (configuration not stated) | 0.7 | 4 | 9 | 1.0 | -5%
O=C(NN=Cc1cc([N+](=O)[O-])ccc1O)c1cccc2ccccc12 | 7.0 | -4 | 1 | -1.8 | -5%
CC1=C(C(=O)N2CCOCC2)CC(CC(=O)NC2CCCCC2)C(=O)N1Cc1ccc(F)cc1 (configuration not stated) | -1.9 | 23 | 7 | 6.8 | 2%
Cn1c(=O)c2[nH]c(CCCCCCCc3nc4ccccc4[nH]3)nc2n(C)c1=O | 0.9 | -6 | -26 | -9.7 | -3%
Cc1ccccc1OCC(=O)OCC(=O)Nc1ncc(Cl)c(C)c1Cl | 0.9 | 10 | 10 | -0.6 | 21%
C[C@H](CO)N1C[C@H](C)[C@@H](CN(C)C(=O)c2ccccc2)OCc2cn(nn2)CCCC1=O | -4.7&0.3 | 7&3 | 15&4 | 2.6&-2.7 | 7%
OC[C@@H]1[C@@H](c2ccccc2)C(c2ccccc2)=NN1c1ccccc1 | -21 | -21 | -55 | 1.0 | -2%
O=C(Cc1ccccc1)c1ccc(N2CCOCC2)cc1 | -35 | 6 | 3 | 12 | -17%
CSCCC(=O)Nc1nc(-c2ccccn2)cs1 | 0.5 | -29* | -6.4* | -5.5* | 1%
O=c1[nH]c2cc([N+](=O)[O-])ccc2c2ccc([N+](=O)[O-])cc12 | -3.3 | 9 | 8 | -9.0 | -1%
COCCn1c2nc(=O)n(-c3ccccc3)c(=O)c-2nc2ccccc21 | -5.6 | 89 | -5 | 7.2 | 13%
Cn1cc(/C=C2\SC(=S)N(NC(=O)c3cccc(Cl)c3)C2=O)c2ccccc21 | 5.4 | 14 | 8 | 5.5 | 3%
